From PubChem
HNF4A DNA FP – change in binding of human HNF4 alpha to DNA | 360,000 tested, 0.3% active | P41235 | HNF4a-FITC DNA binding, fluorescence polarization, 1 h | AID 1224865 | activity change, % at 10 µM; in the data active = activity change above about 30%, passing the limit was not always enough;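 note: controls were the assay level and a saturating level of protein; the project sought stronger binding though the title names inhibitors; some compounds called inactive have numbers as strong as hits; positive values seem to mean higher polarization but the record does not say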
LANA-H2B inh – blocks KSHV LANA binding to histone H2A/H2B. inhibition, % (test concentration not listed). Q9QR71. AID 2629. 320,000 tested, 0.6% active. cell-free LANA-H2A/H2B peptide, fluorescence polarization; in the data active = inhibition mostly above about 10%, no sharp cut-off; inactive = mostly below about 6.7%;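 note: stock transfer was 7.5 nL into about 10 µL; 0% = median of vehicle wells and 100% = median of positive control wells; one replicate is shown; the record names a cut of 25% in any replicate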
Target sequence (Q9QR71 whole entry, looked up): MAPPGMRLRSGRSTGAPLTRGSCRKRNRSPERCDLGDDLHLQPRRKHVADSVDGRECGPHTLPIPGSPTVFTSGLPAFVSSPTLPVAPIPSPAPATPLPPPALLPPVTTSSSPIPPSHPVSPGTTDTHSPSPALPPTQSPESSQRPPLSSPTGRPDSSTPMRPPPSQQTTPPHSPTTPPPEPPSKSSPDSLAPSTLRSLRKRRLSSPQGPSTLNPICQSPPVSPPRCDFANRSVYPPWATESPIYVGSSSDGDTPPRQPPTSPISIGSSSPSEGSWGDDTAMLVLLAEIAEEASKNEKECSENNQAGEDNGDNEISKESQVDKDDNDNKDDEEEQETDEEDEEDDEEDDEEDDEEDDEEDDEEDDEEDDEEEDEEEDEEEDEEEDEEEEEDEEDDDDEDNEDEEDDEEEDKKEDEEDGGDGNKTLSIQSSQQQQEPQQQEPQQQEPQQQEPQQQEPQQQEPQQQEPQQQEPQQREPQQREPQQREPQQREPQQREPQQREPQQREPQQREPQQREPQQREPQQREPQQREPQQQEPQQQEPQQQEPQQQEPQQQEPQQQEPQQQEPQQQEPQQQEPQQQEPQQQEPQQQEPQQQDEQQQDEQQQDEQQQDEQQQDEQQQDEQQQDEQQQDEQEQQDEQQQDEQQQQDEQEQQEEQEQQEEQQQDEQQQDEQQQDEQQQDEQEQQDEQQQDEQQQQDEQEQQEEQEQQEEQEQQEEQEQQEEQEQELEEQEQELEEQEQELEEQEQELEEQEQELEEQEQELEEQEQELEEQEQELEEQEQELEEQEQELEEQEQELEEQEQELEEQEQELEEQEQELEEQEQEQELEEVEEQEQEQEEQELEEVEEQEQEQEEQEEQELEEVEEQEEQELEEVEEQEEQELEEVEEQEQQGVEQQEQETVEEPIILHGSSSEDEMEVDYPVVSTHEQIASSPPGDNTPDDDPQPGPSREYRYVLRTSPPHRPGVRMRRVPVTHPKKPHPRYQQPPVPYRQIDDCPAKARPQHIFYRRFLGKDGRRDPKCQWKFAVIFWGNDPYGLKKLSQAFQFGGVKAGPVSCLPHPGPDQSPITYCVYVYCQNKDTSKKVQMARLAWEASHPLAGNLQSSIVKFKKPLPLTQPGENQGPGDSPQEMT
FGF22 binding – FGF22 (human) thermal shift binding; recombinant FGF22 thermal shift, SYPRO orange fluorescence; percent of sucrose octasulfate shift, DMSO zero; 340,000 tested, 1.5% active; calls only at 9.99 µM; AID 651658; Q9HCT0;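 active = melting point raised past a set limit in the mean and every replicate; three in four hits are not shown here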
ALR H2O2 inh – inhibitors of human sulfhydryl oxidase ALR; P55789; inhibition, % (concentration not given with the values); 290,000 tested, 3.8% active; AID 485317; purified ALR, DTT oxidation, H2O2 HRP-luminol luminescence;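 active = mean and each replicate at 75% or more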;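 note: stock transfer was 7.5 nL into about 7.5 µL; 0% = neutral wells and 100% = wells with inactivated enzyme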
Ecoli growth – blocks Escherichia coli growth | AID 1053175 | 330,000 tested, 0.21% active | OD600, 23 h; stronger effect = lower value | OD600 absorbance (test concentration not listed);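 active = OD600 absorbance below the run mean of sample wells minus 3.6 SD, in any replicate, cut at about 0.56 in these data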;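 note: stock transfer was 300 nL into about 60 µL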
B2AR ag – human beta-2 adrenergic receptor agonism by FAP; P07550; Am2.2-beta2AR cells, FAP receptor internalization, flow cytometry; reference of the scale not given here; response, % (concentration not given with the values); 340,000 tested, 0.43% active;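 active = response above a set limit, near 3 SD of response in nonfluorescent compounds, cut at about 42% in these data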;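 note: stock transfer was 100 nL into about 11 µL; a reference agonist was the positive control; negative values mostly stem from fluorescent compounds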
UCH37 DUB inh – human UCH37 deubiquitinating enzyme inhibition | purified proteasome/UCH37, Ub-AMC cleavage fluorescence | 330,000 tested, 0.33% active | inhibition, % (concentration not given with the values);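 active = mean of two replicates above 20%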;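 note: 0% = compound-free wells with enzyme and 100% = wells lacking proteasome; stock transfer was 100 nL into about 20 µL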
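system = Proteasome-associated human UCH37 deubiquitinase | amount = 0.15 nM proteasome as dispensed | medium = pH 7.4 Tris-HCl (50 mM) with ovalbumin, ATP-MgCl2, DTT | incubation = 30 min preincubation with enzyme, 25 min cleavage at room temperature | detection = AMC fluorescence 355/460 nm | read-out basis = percent inhibition | controls = no-proteasome and no-compound wells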
An asterisk follows results filed as active; i = inactive; . = not tested or not shown. The list is partial; the hit share may differ from the screen's.

nr	SMILES	HNF4A DNA FP	LANA-H2B inh	FGF22 binding	ALR H2O2 inh	Ecoli growth	B2AR ag	UCH37 DUB inh
1	O=C(/C=C/c1ccccc1Cl)NCCCn1ccnc1	3.1	-2.5	i	-17	0.64	-11	5.7
2	O=C(O)CSc1nnc(-c2ccncc2)n1CCc1ccccc1	-1.9	-6.4	.	-16	0.65	16	-0.4
3	COC(=O)Cn1cnc(C(=O)Nc2ccc(C)c(C)c2)n1	1.1	.	i	.	0.7	2	-2.6
4	C[C@H](CO)N1C[C@H](C)[C@@H](CN(C)C(=O)Nc2ccc(C(F)(F)F)cc2)Oc2c(NS(=O)(=O)c3ccccc3)cccc2C1=O	0.6	-2.0	i	2	.	-3	0.0
5	O=C(O)CSCC(=O)N1CCc2c([nH]c3ccccc23)C1C(F)(F)F (stereo unspecified)	1.2	-3.8	i	.	0.7	-3	2.5
6	COc1cccc(NC(=O)C2CCN(S(=O)(=O)c3ccccc3)CC2)c1	-0.7	-0.8	i	26	0.72	15	2.5
7	CCOC(=O)N1CCN(CC(O)COCc2ccc(Cl)cc2)CC1 (stereo unspecified)	1.6	.	.	.	0.74	-1	2.8
8	CCN(CC)c1ccc(/C=N/NC(=O)Nc2ccccc2)cc1	2.5	1.4	.	34	.	35	.
9	COc1ccccc1/C=N/NC(=O)CC(=O)NCCc1ccccc1	0.8	4.3	i	-9	.	-3	.
10	NNC(=O)c1c[nH]c2ccc(OCc3ccccc3)cc12	-2.2	1.4	i	59	0.69	3	2.2
11	CCOC(=O)c1cc(-c2ccc(F)cc2)nc2c1c(=O)[nH]c(=O)n2Cc1ccccc1	-0.1	0.3	i	-3	0.7	-8	-87
12	CC(/C=C(\NC(=O)c1ccccc1)C(=O)N=Nc1c(O)[nH]c2ccc(C)cc12)=C\c1ccccc1	0.3	1.6	.	2	0.79	5	5.0
13	Cn1c(=O)oc2cc(S(=O)(=O)Nc3ccccc3O)ccc21	-1.1	-7.8	i	5	0.63	2	1.8
14	O=[N+]([O-])c1cc(S(=O)(=O)c2ccc(N3CCCCC3)c([N+](=O)[O-])c2)ccc1N1CCCCC1	2.1	.	i	.	0.69	-14	6.4
15	Cc1cc(C)c2c(=O)[nH]c(SCC(=O)Nc3ccc(N(C)C)cc3)nc2n1	0.3	-4.6	.	99*	0.66	-7	3.9
16	Cc1cccc(C(=O)NNC(=O)c2cccc(C)c2)c1	-1.5	-0.2	i	-2	0.68	3	1.7
17	Cc1ccc(CNC(=O)C2CCN(S(=O)(=O)N3CCOCC3)CC2)cc1	-0.8	-2.9	.	-1	0.74	15	1.5
18	COc1ccc(C(=O)CSc2nnc(NC(=O)C3CC(=O)N(c4cccc(OC)c4)C3)s2)cc1 (stereo unspecified)	3.5	.	i	.	0.69	11	-0.5
19	COc1ccc(N2CCN(C(=O)COc3ncnc4ccccc34)CC2)cc1	4.8	1.6	i	.	0.68	2	0.1
20	CCC(C)(C)NC(=O)C(c1ccco1)N(C(=O)c1csnn1)c1cccc(F)c1 (stereo unspecified)	4.5	7.0	.	-4	0.7	9	4.3
21	Cc1cccc2c(C(=O)Nc3ccc(Br)cc3)cc(-c3ccccn3)nc12	-1.8	1.6	i	-1	0.72	-2	-11
22	O=C(/N=C1\NC(=O)C(F)(C(F)(F)F)S1)NC1CCCCC1 (stereo unspecified)	-0.5	-5.1	.	15	0.78	2	2.0
23	O=C(COC(=O)c1c[nH]c(=O)[nH]c1=O)Nc1cccc([N+](=O)[O-])c1	-2.6	0.5	i	0	0.69	3	2.0
24	NNC(=S)Nc1ccc(S(=O)(=O)N2CCOCC2)cc1	2.3	4.3	i	98*	0.72	-3	-0.9
25	CC(=O)Nc1ccccc1OC(=O)N1CCOCC1	0.9	-7.9	.	1	0.65	-11	0.4
26	O=C(CNC(=O)c1cccc(Br)c1)N/N=C/c1cn[nH]c1-c1ccccc1	-2.4	-3.0	i	-3	.	-3	.
27	Cc1cc(C)c2c(n1)SCC(=O)N2CC(=O)Nc1ccc(C)c(C)c1	-1.6	.	i	.	0.76	2	3.7
28	COc1ccc(Cc2cnc(N)s2)cc1	-1.0	2.5	i	11	0.64	-1	1.8
29	CCc1c(C)c(C#N)c2nc3ccccc3n2c1NCCN(C)C	2.5	5.2	.	11	0.72	-8	-43
30	CCOc1ccc2nc(SCC(=O)NCc3ccc(OC)c(OC)c3)[nH]c2c1	5.8	-9.6	i	-34	0.71	2	6.5

Next entries.
| No. | canonical_smiles | HNF4A DNA FP | LANA-H2B inh | FGF22 binding | ALR H2O2 inh | Ecoli growth | B2AR ag | UCH37 DUB inh |
| --- | --- | --- | --- | --- | --- | --- | --- | --- |
| 31 | COCCNC(=O)C1CCC(=O)N(c2ccc(OC)cc2)C1c1ccc(OC)c(OC)c1 (stereo unspecified) | -2.4 | -3.3 | . | . | 0.68 | 4 | -0.1 |
| 32 | CC(C)CCN(C(=O)CCSc1ccc(F)cc1)c1c(N)n(Cc2ccccc2)c(=O)[nH]c1=O | 1.5 | 1.3 | i | . | 0.65 | 2 | 0.8 |
| 33 | CCOc1cc(/C=N/NC(=O)CSc2nnc(C)s2)ccc1OCc1ccccc1Cl | 0.0 | -1.7 | i | 0 | . | -8 | . |
| 34 | CNC[C@H]1Oc2c(NS(=O)(=O)c3ccc(OC)cc3)cccc2C(=O)N([C@H](C)CO)C[C@@H]1C | 1.9 | . | i | . | 0.73 | -2 | 3.1 |
| 35 | CCCn1c(C(O)c2ccc(OC)cc2)nc2ccccc21 (stereo unspecified) | -1.2 | 1.5 | . | -6 | 0.73 | -5 | 2.3 |
| 36 | CCOC(=O)/C(C#N)=C/c1ccc(-c2ccsc2C(=O)OC)o1 | -20 | 0.3 | . | . | 0.69 | 1 | -2.9 |
| 37 | Cn1c2ccccc2c(=O)c2ccc(-c3ccc4c(c3)OCO4)cc21 | -2.0 | 8.8 | i | 13 | 0.77 | 3 | -18 |
| 38 | COc1cccc(-n2c(=O)[nH]cc(C(=O)Nc3ccc(NC(C)=O)cc3)c2=O)c1 | 2.2 | -6.0 | i | 18 | 0.72 | -140 | 5.2 |
| 39 | C=C(C)C(=O)Nc1cccc(C2=NOC3(C2)C[C@@H](C(N)=O)N(C(=O)c2cc([N+](=O)[O-])cc([N+](=O)[O-])c2)C3)c1 (stereo partly specified) | -28 | 1.2 | . | . | . | -7 | -0.8 |
| 40 | Cc1cccc(-c2oc3ccc(-c4ccc5c(c4)OCO5)cc3c2C(=O)OCc2ccc(O)cc2)c1 | -5.0 | -0.1 | . | . | 0.72 | -3 | -45 |
| 41 | COc1ccc(NS(=O)(=O)c2coc(C(N)=O)c2)cc1Cl | -0.7 | -0.7 | i | 0 | 0.72 | 6 | 1.6 |
| 42 | Cc1ccc(C2C(/C=C3/SC(=S)NC3=O)=C(c3cccs3)Oc3ccccc32)cc1 (stereo unspecified) | -3.8 | 3.0 | i | 99* | 0.67 | 11 | 11 |
| 43 | Cc1ccc(S(=O)(=O)N2CCC(=O)N(CCOCc3ccccc3C)CC2)cc1 | -3.7 | -0.7 | . | -3 | 0.79 | 1 | 2.8 |
| 44 | COc1ccc(-c2cc(-c3ccc(Cl)cc3)c(C#N)c(SCC(=O)O)n2)cc1 | -5.7 | 0.8 | i | -3 | 0.72 | 3 | -273 |
| 45 | O=C(Nc1ccccn1)C1CCN(S(=O)(=O)c2ccc3c(c2)OCCO3)CC1 | 2.6 | 36* | i | 1 | 0.69 | -4 | 0.8 |

3 entries from above, in transposed form.
11	CCOC(=O)c1cc(-c2ccc(F)cc2)nc2c1c(=O)[nH]c(=O)n2Cc1ccccc1
28	COc1ccc(Cc2cnc(N)s2)cc1
40	Cc1cccc(-c2oc3ccc(-c4ccc5c(c4)OCO5)cc3c2C(=O)OCc2ccc(O)cc2)c1
Screen / compound no.	11	28	40
HNF4A DNA FP	-0.1	-1.0	-5.0
LANA-H2B inh	0.3	2.5	-0.1
FGF22 binding	i	i	.
ALR H2O2 inh	-3	11	.
Ecoli growth	0.7	0.64	0.72
B2AR ag	-8	-1	-3
UCH37 DUB inh	-87	1.8	-45

Two compounds drawn at random from those above:
| No. | canonical_smiles | HNF4A DNA FP | LANA-H2B inh | FGF22 binding | ALR H2O2 inh | Ecoli growth | B2AR ag | UCH37 DUB inh |
| --- | --- | --- | --- | --- | --- | --- | --- | --- |
| 39 | C=C(C)C(=O)Nc1cccc(C2=NOC3(C2)C[C@@H](C(N)=O)N(C(=O)c2cc([N+](=O)[O-])cc([N+](=O)[O-])c2)C3)c1 (stereo partly specified) | -28 | 1.2 | . | . | . | -7 | -0.8 |
| 41 | COc1ccc(NS(=O)(=O)c2coc(C(N)=O)c2)cc1Cl | -0.7 | -0.7 | i | 0 | 0.72 | 6 | 1.6 |

Further compounds:
| No. | canonical_smiles | HNF4A DNA FP | LANA-H2B inh | FGF22 binding | ALR H2O2 inh | Ecoli growth | B2AR ag | UCH37 DUB inh |
| --- | --- | --- | --- | --- | --- | --- | --- | --- |
| 46 | CCN(Cc1cc2cccc(C)c2[nH]c1=O)C(=O)c1ccccc1OC | 4.4 | -2.0 | . | -15 | 0.72 | 0 | -7.4 |
| 47 | Nc1nonc1-n1nnc(C(=O)N/N=C/c2cccc(O)c2)c1CN1CCCC1 | 0.7 | 1.0 | i | -17 | . | 9 | . |
| 48 | Cc1cc(NC(=O)c2cccc(S(=O)(=O)N3CCCCCC3)c2)n(-c2ccccn2)n1 | -0.1 | 0.4 | . | -4 | 0.75 | 0 | 6.8 |
| 49 | Cc1ccc(C(=O)Cn2cnc3ccccc3c2=O)cc1 | 2.5 | 4.9 | . | . | 0.75 | -10 | 3.0 |
| 50 | O=C(NNc1nc2cc3c(cc2s1)OCCO3)c1ccccc1 | 3.9 | -0.8 | i | 43 | . | 5 | . |
| 51 | O=C(NC1CCSc2ccccc21)c1cccc(OC(F)F)c1 (stereo unspecified) | 2.0 | 1.6 | i | 5 | 0.68 | 4 | 6.0 |
| 52 | COc1ccccc1NC(=O)N(Cc1ccco1)Cc1cc2c(C)ccc(C)c2[nH]c1=O | -1.9 | . | . | . | 0.71 | 1 | -3.1 |
| 53 | Cc1ccc(NC(=O)CCC(=O)NNC(=O)c2ccccc2Cl)c(C)c1 | -2.8 | 1.2 | i | -8 | 0.72 | 6 | -0.6 |
| 54 | COc1ccc(NC(=O)c2cccc(N3C(=O)c4cccc([N+](=O)[O-])c4C3=O)c2)cc1 | 2.3 | 7.8 | i | -3 | 0.65 | -4 | 1.3 |
| 55 | CCn1c(-c2ccc(OC)c(OC)c2)n[nH]c1=S | -0.7 | -3.6 | . | . | 0.77 | -5 | 4.1 |
| 56 | Cc1cc(C)cc(NC(=O)Nc2ccc(-n3ccc(C(F)(F)F)n3)cc2)c1 | -0.7 | 5.1 | i | -13 | 0.7 | 2 | 5.6 |
| 57 | CC(C)C[C@@H](CN(N=O)[C@@H](Cc1ccccc1)CN(C)N=O)N(CCc1ccccc1)N=O | -4.8 | -1.5 | i | -7 | . | 2 | 5.5 |
| 58 | O=C(Nc1cc(N2CCOCC2)ncn1)Nc1cccc2ccccc12 | 1.2 | 0.6 | . | -2 | 0.71 | 16 | -2.1 |
| 59 | COc1cc(NC(=O)c2ccccc2)c(OC)cc1NC(C)=O | -0.2 | -7.0 | . | . | 0.73 | 31 | 5.2 |
| 60 | CC(C)NC(=O)c1ccc(-c2cccc(C(F)(F)F)c2)o1 | -0.3 | 4.4 | . | -2 | 0.71 | -8 | 1.7 |
| 61 | CCOC(=O)c1sc(NC(=O)C2CC2)nc1C | -1.4 | 9.0 | i | -1 | 0.72 | -28 | 6.7 |
| 62 | N#Cc1c(/N=C/N2CCOCC2)sc2c1CCCCC2 | 0.3 | 1.8 | . | . | . | -2 | . |
| 63 | COc1ccc(NC(=O)CSc2nc(SC)ns2)c(OC)c1 | 2.1 | 0.8 | i | 84* | 0.61 | 2 | -1.0 |
